# INS promoter inh = TRM-6 insulin promoter activity inhibition. inhibition, % at 2 µM. AID 1273. TRM-6 cells (human fetal islet line), insulin promoter-eGFP reporter, imaging; reporter expression induced with tamoxifen. 130,000 compounds, 0.9% hits;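 active means inhibition above the mean plus 3 SD, with well images judged a real hit on visual review, cut at about 60% in these data, passing the limit was not always enough; inconclusive means inhibition over the cutoff but images rejected on review; inactive means inhibition not above the cutoff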
# GALR2 ag = agonists of human galanin receptor 2 (GALR2); O43603; GALR2-expressing cells, agonist activation read-out; activation, %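 (tested at 5 µM)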; 140,000 compounds, 0.48% hits; AID 803;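 active means above mean plus 3 SD of all compounds, about 5% in these data, not always enough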;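 further: 0% = vehicle buffer wells and 100% = reference agonist at full effect; tested in CHO reporter cells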
# Target sequence (O43603 whole entry, looked up): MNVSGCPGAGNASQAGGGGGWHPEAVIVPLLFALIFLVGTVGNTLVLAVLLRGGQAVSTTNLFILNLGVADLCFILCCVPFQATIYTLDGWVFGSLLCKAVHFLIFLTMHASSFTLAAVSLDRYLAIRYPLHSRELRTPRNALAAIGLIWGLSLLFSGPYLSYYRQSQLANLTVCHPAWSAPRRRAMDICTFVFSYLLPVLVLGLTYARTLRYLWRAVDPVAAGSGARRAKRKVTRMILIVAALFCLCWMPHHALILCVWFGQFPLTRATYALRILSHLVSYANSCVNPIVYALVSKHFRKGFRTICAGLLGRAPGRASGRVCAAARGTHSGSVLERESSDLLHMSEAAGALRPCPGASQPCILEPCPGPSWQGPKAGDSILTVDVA
# HSV augment = HSV replication enhancement; HSV replication augmentation in cells, fold increase; 220,000 compounds, 0.005% hits; maximum fold increase;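 active means peak rise of 1.5-fold or more in the series; inconclusive means self-fluorescent or not available for retest; tested in PC3 cells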;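 further: first round at 10 µM; read as green reporter fluorescence; hits show the peak of a series up to 25 µM; 1 = signal of infected wells without compound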
# PKD1 inh = blocks activity of human protein kinase D1 | Q15139 | PKD1 kinase fluorescence polarization assay | inhibition, %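 (about 10 µM by stock and volumes)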 | 200,000 compounds, 0.056% hits;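 active means inhibition of 50% or more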;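 further: controls were vehicle for no effect and a reference inhibitor for full effect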
# RGS16-Gao = RGS16-Galphao interaction regulator (human); 220,000 compounds, 0.38% hits; bead-based flow cytometry RGS16-Galphao binding, fluorescence; actives lie on both sides; binding response (% of control), % at 10 µM; O15492+P09471;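 active means below 25% or above 175%, edge rows of some plates excepted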;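 further: Galphao activated by GDP with aluminum fluoride before binding; 100% = wells without compound and 0% = beads without RGS; some results beyond the cut were filed as inactive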
# Target sequence (O15492 whole entry, looked up): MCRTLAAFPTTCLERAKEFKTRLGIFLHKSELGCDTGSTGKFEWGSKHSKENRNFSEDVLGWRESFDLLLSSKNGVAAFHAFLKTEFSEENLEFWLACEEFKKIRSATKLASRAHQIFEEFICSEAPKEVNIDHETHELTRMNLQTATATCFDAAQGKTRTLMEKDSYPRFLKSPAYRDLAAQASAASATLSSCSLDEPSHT
# Target sequence (P09471 whole entry, looked up): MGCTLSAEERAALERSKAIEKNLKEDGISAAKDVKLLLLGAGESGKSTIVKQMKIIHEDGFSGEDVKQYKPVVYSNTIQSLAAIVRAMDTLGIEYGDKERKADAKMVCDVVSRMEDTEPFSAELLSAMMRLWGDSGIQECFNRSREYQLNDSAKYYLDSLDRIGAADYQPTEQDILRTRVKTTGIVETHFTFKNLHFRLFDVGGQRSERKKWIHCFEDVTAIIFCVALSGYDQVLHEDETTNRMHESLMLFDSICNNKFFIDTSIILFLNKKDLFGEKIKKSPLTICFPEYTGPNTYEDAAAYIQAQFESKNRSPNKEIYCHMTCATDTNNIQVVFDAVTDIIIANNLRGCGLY
# INS promoter inh cell count = also measured in INS promoter inh; calls as there; normalized cell count, %; measured here: cell count, toxicity; reference of the scale not given here;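 cells exposed to compound for 48 h; stained nuclei by imaging scaled within each plate; lower means fewer cells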
# HSV augment primary fold = second read-out of HSV augment, no call of its own (marks repeat the call); fold increase; compound at 10 µM; measured here: primary screen fold increase 10 uM; tested in PC3 cells;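 GFP signal in the first replicate; 1 = infected wells without compound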
# An asterisk follows results filed as active; i = inactive; ? = inconclusive; nt = not tested or not shown.
SMILES	INS promoter inh	INS promoter inh cell count	GALR2 ag	HSV augment	PKD1 inh	HSV augment primary fold	RGS16-Gao
CCOc1ccc2[nH]c(=O)c(CN(CCc3ccccc3)C(=O)N3CCCC3)cc2c1	-20	115	-1.7	i	2	0.87	102
C=CCn1c(-c2c[nH]c3ccccc23)n[nH]c1=S	-11	74	-2.7	i	0	0.88	98
Cc1ccn2cc(-c3cccc(NC(=O)c4cccs4)c3)nc2c1	64	132	nt	i	-7	0.87	109
O=C(CCCOc1ccccc1)N1CCc2ccccc2C1	14	86	-0.4	i	-5	1	113
Cc1[nH]ncc1-c1ccccc1Cl	nt	nt	nt	i	nt	1.1	104
CCOC(=O)N1CCN(C(=O)c2ccc(N3CCCC3=O)cc2)CC1	nt	nt	-2.6	i	-8	0.92	100
COC(=O)C1=C(C)NC(c2c(O)ccc3ccccc23)C(C(=O)OC)=C1C (stereo unspecified)	7	117	0.1	i	2	0.83	58
OC1(c2cccc(C(F)(F)F)c2)CCN(c2ncnc3c2[nH]c2ccccc23)CC1	nt	nt	-0.4	nt	0	nt	99
COc1cc(C2NC(=O)C(C#N)=C(S)N2c2ccccc2)ccc1OC(C)C (stereo unspecified)	-192	116	-1.9	i	0	0.92	100
COc1ccccc1CNC(=O)CCCNS(=O)(=O)c1cccc2nsnc12	-36	96	-2.5	i	-8	0.97	102
Cc1ccccc1-n1nc(-c2ccc(N)cc2)cc1N	nt	nt	-0.7	i	-7	0.95	121
COc1ccc(CCNC(=O)c2oc3ccc(S(=O)(=O)N4CCOCC4)cc3c2C)cc1OC	nt	nt	0.5	i	-7	0.94	110

# 2 entries from above, set out differently:
> Cc1[nH]ncc1-c1ccccc1Cl
  INS promoter inh = nt
  INS promoter inh cell count = nt
  GALR2 ag = nt
  HSV augment = i
  PKD1 inh = nt
  HSV augment primary fold = 1.1
  RGS16-Gao = 104

> CCOC(=O)N1CCN(C(=O)c2ccc(N3CCCC3=O)cc2)CC1
  INS promoter inh = nt
  INS promoter inh cell count = nt
  GALR2 ag = -2.6
  HSV augment = i
  PKD1 inh = -8
  HSV augment primary fold = 0.92
  RGS16-Gao = 100

# Remaining list, next part.
SMILES	INS promoter inh	INS promoter inh cell count	GALR2 ag	HSV augment	PKD1 inh	HSV augment primary fold	RGS16-Gao
O=C(CSC1=NCCS1)N1CCCC1	3	95	-1.2	i	-15	0.89	97
Cc1ccc(-c2ccc(=O)n(CC(=O)NCCN3C(C)CCCC3C)n2)cc1 (stereo unspecified)	-12	104	-2.2	i	-2	0.95	96
O=C(COC(=O)c1cc[n+]([O-])cc1)NCC12CC3CC(CC(C3)C1)C2	-57	78	0.1	i	-1	0.88	106
CC(=O)OC12CC3CC(C1)C(=NO)C(C3)C2	-39	123	-2.0	i	8	0.98	109
CCOC(=O)N1CCC(n2c(SCC(=O)c3ccccc3)nc3ccsc3c2=O)CC1	nt	nt	-3.6	i	5	0.96	100
c1ccc2c(NC3C4CC5CC(C4)CC3C5)nc(N3CCOCC3)nc2c1 (stereo unspecified)	-65	185	nt	i	-6	0.71	103
CC(=O)c1ccc(NC(=O)CSc2nccn2CCc2ccccc2)cc1	-7	129	-1.0	i	-4	0.95	108
Cc1cccc(-n2cnc(C(=O)N3CCN(C)CC3)c2)n1	20	144	nt	i	0	0.94	100
OCCCNc1nc(-c2ccc(Cl)cc2)nnc1-c1ccccc1	24	169	1.3	i	-12	0.76	99
CC(NS(=O)(=O)c1ccc(Br)cc1)C(=O)NCCc1ccccc1 (stereo unspecified)	nt	nt	-0.8	i	-2	1.1	101
COc1ccc(N2C(=O)/C(=C3/C=CC=CN3C)SC2=S)cc1	-37	59	-2.1	i	3	1	111
c1ccc(CCNc2ncnc3c2nnn3Cc2ccccc2)cc1	nt	nt	-2.8	i	-6	1.1	120

# Sorted by value in RGS16-Gao (falling): 3 from the list above
mol	GALR2 ag	HSV augment	PKD1 inh	HSV augment primary fold	RGS16-Gao
c1ccc2c(NC3C4CC5CC(C4)CC3C5)nc(N3CCOCC3)nc2c1 (stereo unspecified)	nt	i	-6	0.71	103
Cc1cccc(-n2cnc(C(=O)N3CCN(C)CC3)c2)n1	nt	i	0	0.94	100
O=C(CSC1=NCCS1)N1CCCC1	-1.2	i	-15	0.89	97

# Following part
SMILES	INS promoter inh	INS promoter inh cell count	GALR2 ag	HSV augment	PKD1 inh	HSV augment primary fold	RGS16-Gao
Cc1ccc(S(=O)(=O)c2cnc(-c3ccccc3)nc2N2CCN(C)CC2)cc1	nt	nt	nt	i	-4	0.87	106
CN1CCN(c2nc(-c3ccc(Cl)s3)cs2)CC1	-29	60	nt	i	-1	1	96
CCc1cc2c(N3CCCCC3)ncnc2s1	29	121	-1.8	i	4	0.97	113
C/C(=N\Nc1nc2ccccc2s1)c1cccs1	20	141	-2.5	i	-2	0.86	104
Cc1ccc(-c2nnc3c(C(F)(F)F)nc4ccccc4n23)cc1	-4	65	-0.6	i	0	0.9	102
COc1cc(F)ccc1S(=O)(=O)N1CCN(C23CC4CC(CC(C4)C2)C3)CC1	-14	92	-2.1	i	2	0.91	102
O=C(N/C(=C/c1ccco1)C(=O)N1CCCC1)c1cccs1	-43	90	-1.1	i	1	0.9	107
COc1ccc(CN2CC(C(=O)NCCC(C)C)CC2=O)cc1 (stereo unspecified)	0	148	nt	i	5	1	97
CCCn1nnc(NC(=O)c2ccc(Br)o2)n1	15	152	-0.8	i	5	0.95	107
C=C(C)Cn1c(SCCN2CCOCC2)nc2c1c(=O)[nH]c(=O)n2C	-33	104	-1.7	i	7	0.99	96
O=C(NC1CCCCC1)C1CCN(c2cnccn2)CC1	nt	nt	0.6	i	-7	0.96	99
CN(c1cccc(NS(=O)(=O)c2ccccc2)c1)S(C)(=O)=O	nt	nt	nt	i	-2	0.96	110

SMILES	INS promoter inh	INS promoter inh cell count	GALR2 ag	HSV augment	PKD1 inh	HSV augment primary fold	RGS16-Gao
Cn1c(=O)n(-c2ccc(Cl)cc2)c(=O)c2c3c(sc21)COC(C)(C)C3	30	94	-3.2	i	-6	0.9	105
CCOC(=O)CSc1nnc(-c2ccc(OC)cc2)n1CC	nt	nt	0.6	i	1	1	98
CCOC(=O)Cc1c(C)nc(SC)[nH]c1=O	nt	nt	nt	i	-9	1.1	103
Cc1ccc(CN2CCN(Cc3ccncc3)CC2CCO)o1 (stereo unspecified)	nt	nt	nt	i	8	0.93	100
O=C(c1ccco1)N1CCN(Cc2cccc(F)c2)CC1	-75	118	-1.9	i	2	0.9	89
Cc1ccc(Cn2nc(C)c(NC(=O)C3(C)CC3(Br)Br)c2C)cc1 (stereo unspecified)	0	46	-1.4	i	-2	1.1	nt
O=C(Oc1ccc(-c2ccccc2)cc1)C1C2CCCCC21 (stereo unspecified)	-20	83	-1.3	i	1	0.94	112
O=C(/C=C/c1ccccc1)NC(=S)NNC(=O)c1cccnc1	-18	60	-1.3	i	7	1	98
COc1ccc(-c2[nH]ncc2N=Nc2ccccc2)cc1	-136	89	nt	nt	-2	nt	104
COc1ccccc1C(=O)Nc1nnn(C)n1	nt	nt	-2.4	i	6	0.75	100
CCOc1ccc(NC(=O)CC2C(=O)N(CC)C(=S)N2NC(=O)c2ccncc2)cc1 (stereo unspecified)	nt	nt	nt	i	nt	0.94	102
CS(=O)(=O)Oc1ccc(Br)c2cccnc12	nt	nt	nt	i	nt	0.99	100

# An excerpt from above, limited to RGS16-Gao.
Molecule | RGS16-Gao
O=C(/C=C/c1ccccc1)NC(=S)NNC(=O)c1cccnc1 | 98
COc1cc(F)ccc1S(=O)(=O)N1CCN(C23CC4CC(CC(C4)C2)C3)CC1 | 102

# Following part:
SMILES	INS promoter inh	INS promoter inh cell count	GALR2 ag	HSV augment	PKD1 inh	HSV augment primary fold	RGS16-Gao
CCCNC(=O)NC(=O)CSc1nncs1	25	95	nt	i	-2	0.95	110
CC12CCC(C(=O)NC3CCCC3)(CC1=O)C2(C)C (stereo unspecified)	53	123	-2.4	i	-9	0.8	95
CC(=O)Nc1cccc(NC(=S)Nc2cccc(Cl)c2Cl)c1	nt	nt	nt	i	-5	0.76	95
Cc1ccc(C(=O)COC(=O)c2c(C)cc(=O)oc2C)cc1[N+](=O)[O-]	0	117	-0.2	i	-7	1	98
COc1ccc(OC)c(-c2csc3nnc(SCC(=O)Nc4ccc(NC(C)=O)cc4)n23)c1	nt	nt	-1.4	i	13	0.98	104
Cc1cc(C)n(-c2ccc(C(=O)Nc3ccc4c(c3)OCCO4)cc2)n1	-28	126	-0.5	i	-5	0.94	109
COC(=O)c1cc2c(s1)-c1ccccc1OC2	nt	nt	nt	i	-2	1.1	100
CCN(CC)c1cnn(C/C(=N\OC)c2ccc(Cl)cc2)c(=O)c1Br	-136	127	-0.9	i	7	1.1	75
COC(=O)c1cnc(Oc2ccc(NC(=O)NC(=O)c3c(OC)cccc3OC)cc2)cc1C(F)(F)F	nt	nt	nt	i	nt	0.57	106
COc1ccc(OCCC(=O)OCC(=O)NC(=O)NC(C)C)cc1	22	93	-2.4	i	-4	1	99
Oc1ccccc1N=Nc1ccccc1O	-118	15	nt	i	1	0.73	78
Cc1nc(C)c(C(=O)Nc2nc3c(C)cccc3s2)o1	14	126	-1.1	i	-4	1.1	94

SMILES	INS promoter inh	INS promoter inh cell count	GALR2 ag	HSV augment	PKD1 inh	HSV augment primary fold	RGS16-Gao
NS(=O)(=O)c1ccc(CCNC(=O)CSc2nc3ccccc3c3nc(CCN4CCCCC4)nn23)cc1	-457	52	nt	i	-1	0.89	99
Cc1ccc(CSCC(=O)Nc2ccc3c(c2)OCO3)cc1	6	139	-0.5	i	-6	0.91	73
Cc1ccc(S(=O)(=O)Nc2ccccn2)cc1[N+](=O)[O-]	nt	nt	nt	i	-11	0.91	98
Cc1ccccc1CO/N=C/c1[nH]ncc1Br	nt	nt	nt	i	nt	1.1	104
COc1cccc(/C=N/N2C(=O)NC3(CCCCC3)C2=O)c1O	35	102	-2.0	i	-5	0.99	96
Clc1ccc(C(c2nnnn2C2CCCC2)N2CCN(Cc3ccncc3)CC2)cc1 (stereo unspecified)	-93	82	-2.0	i	0	0.83	99
NC(=O)c1cc(Br)cc2c3c([nH]c12)CCCC3	-14	127	0.7	i	-2	0.69	103
O=C(Cc1ncn[nH]1)NCCc1ccccc1	nt	nt	-1.8	i	2	0.98	85
CCOc1ccc(-n2c(SCC(=O)Nc3cc(OC)c([N+](=O)[O-])cc3C)nc3ccccc32)cc1	32	155	-0.6	i	-13	0.99	100
CCC(CC)c1nnc(NC(=O)c2nc3nc(C)cc(C)n3n2)s1	-26	129	-3.0	i	-8	1.1	99
COc1ccc(NCc2nnc(SCC(=O)c3ccc(OC)cc3)o2)cc1	nt	nt	-2.8	i	5	1	100
COc1ccc(NC(=O)COc2cccnc2[N+](=O)[O-])cc1OC	-27	105	nt	i	-2	0.87	112

SMILES	INS promoter inh	INS promoter inh cell count	GALR2 ag	HSV augment	PKD1 inh	HSV augment primary fold	RGS16-Gao
N=c1c2c(-c3ccccc3)c(-c3ccccc3)n(Cc3ccco3)c2ncn1CCO	-327	72	-0.1	?	-3	nt	97
CN(C)c1cccc(C(=O)NCc2ccc(Cl)cc2)c1	nt	nt	nt	i	-6	1.1	101
COc1ccc2[nH]c(=O)c(CNC3CCCCC3)cc2c1	-46	46	-2.7	i	-11	0.97	101
COc1ccc(CN2c3cc(S(=O)(=O)N4CCOCC4)ccc3N3CCCC32)cc1 (stereo unspecified)	-42	83	0.5	i	-10	0.96	99
Cc1ccc(-c2csc(-c3c[nH]c4ccccc34)n2)cc1	-4	96	-0.8	i	-5	0.85	96
CCOC(=O)c1sc(Nc2nc3ccc(OC)cc3s2)cc1C	nt	nt	-0.7	i	6	0.98	109
CCC(C)NC(=O)CCc1nc2ccccc2n1-c1ccccc1 (stereo unspecified)	nt	nt	-0.4	i	-3	1.1	108
CCn1c(=O)c2cc(C(=O)N(C)c3ccccc3F)sc2c2ccccc21	nt	nt	nt	i	nt	0.85	104
Cc1cc(C)c2nc(NC(=O)c3ccc4c(c3)OCO4)sc2c1	22	138	-2.7	i	-9	1.1	106
Cc1nc2ccccc2n1CC(=O)NC(C)C1CC2CCC1C2 (stereo unspecified)	nt	nt	nt	i	-2	0.92	82
Cc1ccc(-c2nc(N)sc2-c2ccc(C)cc2)cc1	nt	nt	nt	i	-3	1	100
CC(C)C(NC(=O)C12CC3CC(CC(C3)C1)C2)C(=O)NC1=NCCS1 (stereo unspecified)	-38	89	-0.9	i	-7	1	96
CC(C)(C)NC(=O)NC(=O)COC(=O)Cc1c(F)cccc1Cl	nt	nt	nt	i	-2	1	101
Cc1cccn2c(=O)c(C=O)c(Cl)nc12	nt	nt	nt	i	nt	0.97	96

# Screening results deposited in PubChem BioAssay by several laboratories.

# Hits appear at their usual frequency. Share with any hit: about 1.2%.
